High-throughput results deposited in PubChem BioAssay by several laboratories.
E coli growth – E. coli growth inhibition, primary screen, OD600. OD600 absorbance (concentration not given with the values). Escherichia coli growth, 23 h; hits give low values. AID 1053175, 2014. actives 0.21% (n = 330,000);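 active = OD600 absorbance below the run mean of sample wells minus 3.6 SD, in any replicate, cut at about 0.56 in these data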;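 also: stock transfer was 300 nL into about 60 µL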
UCH37 inh – inhibitors of human UCH37 deubiquitinase, primary screen, biochemical, Ub-AMC cleavage, fluorescence; Ubiquitin carboxyl-terminal hydrolase isozyme L5 (Homo sapiens), Q9Y5K5; purified proteasome/UCH37; inhibition, % (concentration not given with the values); actives 0.33% (n = 330,000); AID 588478, 2011;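 active = mean of two replicates above 20%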;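 also: 0% = compound-free wells with enzyme and 100% = wells lacking proteasome; stock transfer was 100 nL into about 20 µL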
Target sequence (Q9Y5K5 whole entry, looked up): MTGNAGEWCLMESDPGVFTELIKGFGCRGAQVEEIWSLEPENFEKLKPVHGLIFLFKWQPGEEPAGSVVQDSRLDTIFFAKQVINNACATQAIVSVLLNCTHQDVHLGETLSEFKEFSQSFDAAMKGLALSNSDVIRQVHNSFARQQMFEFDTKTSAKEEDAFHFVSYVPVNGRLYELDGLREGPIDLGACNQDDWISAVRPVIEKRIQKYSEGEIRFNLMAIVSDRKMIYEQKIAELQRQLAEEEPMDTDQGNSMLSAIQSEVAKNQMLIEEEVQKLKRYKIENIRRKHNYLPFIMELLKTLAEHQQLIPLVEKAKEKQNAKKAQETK
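Material: human UCH37 enzyme supplied as purified proteasome complex. Measure: % inhibition of Ub-AMC cleavage fluorescence. Medium: pH 7.4 Tris-HCl (50 mM) with ovalbumin, ATP-MgCl2, DTT. Times: 30 min preincubation with enzyme, 25 min cleavage at room temperature. Detection: AMC fluorescence intensity at 355/460 nm.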
FGF22 binding – binders of human FGF22 protein, primary screen, FGF22 synaptogenesis inhibitor project, biophysical, thermal shift, single point; recombinant FGF22 thermal shift, SYPRO orange fluorescence; percent of sucrose octasulfate shift, DMSO zero; calls only at 9.99 µM; actives 1.5% (n = 340,000);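 active = melting point raised past a set limit in the mean and every replicate; inconclusive = no clear call; three in four hits are not shown here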
Target sequence (Q9HCT0 whole entry, looked up): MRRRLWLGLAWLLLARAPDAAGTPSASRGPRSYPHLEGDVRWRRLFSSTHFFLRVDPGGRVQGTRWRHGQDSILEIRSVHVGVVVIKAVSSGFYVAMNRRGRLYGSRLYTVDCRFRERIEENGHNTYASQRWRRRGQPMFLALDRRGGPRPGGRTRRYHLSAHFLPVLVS
Bfl-1 A1 inh – caspase 3/7 activation in MEF A1-2A-BIM cells, primary screen, A1 inhibitor project, cell-based, luminescence, HTS; caspase activation, % (concentration not given with the values); Caspase-Glo 3/7 luminescence, 3 h; percent of clofoctol response, vehicle zero; actives 0.066% (n = 330,000);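 active = over half of replicate activation scores above 10%, or exactly half above 10 with the replicate mean above 10; inconclusive = replicate mean below 10 yet half the replicates above 10; inactive = over half of replicates below 10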;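 also: wells of about 30 µL received 50 nL stock; many hits fall short of the cut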
T cruzi inh – inhibitors of intracellular T. cruzi growth, primary screen, luminescence, NIH3T3 host cells. actives 1.4% (n = 300,000). inhibition, % (concentration not given with the values). T. cruzi beta-gal in NIH3T3, 90 h;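 active = mean inhibition across valid replicates above about 55%, limit read from the data; inconclusive = mean below that limit but half or more replicates reach it; inactive = mean below it, under half of replicates reach it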;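 also: signal also drops with host cell toxicity which is not excluded here; 0% = plate median of DMSO wells and 100% = zero luminescence signal; higher percent means less beta-gal luminescence so fewer parasites; stock transfer was 50 nL into about 50 µL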
rRNA inh HTS – reduced GFP signal of wild-type E. coli, primary screen, bacterial rRNA inhibitor project, GFP/RFP fluorescence, OD600, single point; E. coli WT GFP vs humanized-ribosome RFP mutants, 24 h; hits give low values; DMSO median 0, no signal -100; GFP signal change (wild-type ribosome), % (test concentration not listed); actives 1.6% (n = 350,000); AID 720706, 2013;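 active = significant combined selectivity score with lowered wild-type GFP, culture density cut under 30%, mutant RFP and density less affected; inactive = any of these conditions unmet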; also: one replicate is shown; some compounds called inactive have numbers as strong as hits
Beta cell apopt – inhibitors of cytokine-induced beta cell apoptosis, primary screen, luminescence; INS-1E cytokine-induced death, ATP luminescence, 48 h; percent of positive-control rescue, neutral wells zero; actives 0.8% (n = 300,000); protection from apoptosis, % (test concentration not listed); AID 435005, 2010;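 active = all replicates at 75% or more, or half of them and the mean; inconclusive = half reach 75% but not the mean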;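 also: 0% = cytokine-treated negative control wells and 100% = positive control rescue; higher means more ATP so stronger rescue from cytokine killing; wells of about 40 µL received 100 nL stock; the first replicate is given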
AF4-AF9 inh – inhibitors of AF4 peptide binding to AF9, primary screen, biochemical, AlphaScreen, biotin-AF4 peptide, FLAG-AF9, single point; inhibition, % at 10 µM; actives 0.47% (n = 350,000); AID 651704, 2012;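 active = every replicate reaching a set inhibition limit, whatever the replicate mean, cut at about 25% in these data; inconclusive = mean inhibition reaches that limit but some replicates miss it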;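 also: 0% = plate neutral control median and 100% = total signal loss; the record names both 10 and 1 µM as test concentration; the first replicate is given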
Target sequence (P42568 whole entry, looked up): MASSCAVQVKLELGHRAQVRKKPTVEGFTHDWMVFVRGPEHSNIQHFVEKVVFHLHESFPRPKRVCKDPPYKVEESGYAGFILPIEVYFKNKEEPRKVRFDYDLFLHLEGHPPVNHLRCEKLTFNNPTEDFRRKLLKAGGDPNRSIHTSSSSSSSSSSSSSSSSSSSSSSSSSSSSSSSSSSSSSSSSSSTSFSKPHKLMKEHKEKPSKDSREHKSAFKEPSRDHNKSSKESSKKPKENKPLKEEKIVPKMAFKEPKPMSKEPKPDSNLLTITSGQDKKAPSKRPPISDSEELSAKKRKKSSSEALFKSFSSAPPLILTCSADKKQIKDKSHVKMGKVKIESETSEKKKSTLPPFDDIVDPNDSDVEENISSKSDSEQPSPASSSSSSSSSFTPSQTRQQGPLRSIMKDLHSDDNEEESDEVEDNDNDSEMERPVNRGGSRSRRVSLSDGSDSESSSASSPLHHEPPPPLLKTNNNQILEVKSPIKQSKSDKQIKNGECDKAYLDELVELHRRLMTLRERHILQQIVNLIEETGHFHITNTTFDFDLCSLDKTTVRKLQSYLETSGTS
rRNA inh HTS OD600 – further read-out of rRNA inh HTS, marked with its call; OD600 change, %; measured here: OD600 growth;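 optical density of the mix in the first replicate; 0 = DMSO median and -100 = no signal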
rRNA inh HTS RFP – second read-out of rRNA inh HTS, no call of its own (marks repeat the call); RFP signal change, %; measured here: RFP humanized mutant strains;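 first replicate; 0 = DMSO median and -100 = no signal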
* = called active by the depositor; i = inactive; ? = inconclusive; . = not tested or not shown. An excerpt; rates above refer to the full screens.

SMILES	E coli growth	UCH37 inh	FGF22 binding	Bfl-1 A1 inh	T cruzi inh	rRNA inh HTS	rRNA inh HTS OD600	rRNA inh HTS RFP	Beta cell apopt	AF4-AF9 inh
O=C(Cn1nc(Cl)nc1Cl)c1ccc([N+](=O)[O-])cc1	0.65	-0.8	i	0.1	-7	-11	7	-3.1	-4	1.1
CC12CCC(c3nnc(SCc4ccc(Cl)cc4)nc31)C2(C)C (centres undefined)	0.69	3.2	.	-0.3	13	.	.	.	-5	.
COc1ccc(NC(=S)N2CCC(c3nc4ccc(Cl)cc4[nH]3)CC2)c(OC)c1	0.72	7.1	i	0.7	13	-9	-5	0.6	1	-34
CC(=O)OCC1CCCC2=C(C)C(=O)CCC21COC(C)=O (centres undefined)	0.64	0.3	i	0.9	-15	11	-2	-3.4	0	-1.2
Cc1cccc2cc(C3CC(c4ccco4)=NN3S(=O)(=O)c3ccccc3)c(Cl)nc12 (centres undefined)	0.72	1.3	.	0.0	21	.	.	.	-3	.
CCOc1ccc(N2CC(O)(c3ccc(F)cc3)[N+]3=C2CCCC3)cc1 (centres undefined)	0.69	4.4	i	0.4	17	-5	-4	-2.4	1	1.6
CCCCOc1ccc(Cl)cc1CSc1nnc(CC)n1N	0.64	4.2	i	-0.6	7	-18	-12	-1.3	1	4.3
Nc1ccc(C(=O)OCC(=O)N2c3ccccc3Sc3ccccc32)cc1[N+](=O)[O-]	0.72	5.8	.	0.4	.	.	.	.	0	.
Cc1cc(C)n(-c2ccc(C(=O)NC3=NCCS3)cc2)n1	0.61	1.4	.	-0.7	-6	.	.	.	-2	.
COC(=O)C[C@H]1c2cc(C(F)(F)F)ccc2S(=O)(=O)N1Cc1ccccc1	.	1.9	i	-0.2	-9	-2	-3	0.3	-1	.
CCOC(=O)C(Cc1ccccc1)(NC(C)=O)C(=O)OCC	0.68	4.3	i	0.7	-18	22	9	2.1	.	-30
Cc1nnc(NC(=O)c2ccc(S(=O)(=O)N3CCOCC3)cc2)s1	0.69	4.6	i	0.2	-4	6	8	-5.1	-5	-0.9
Cc1ccc2c(c1)N(CC(=O)NCC(C)c1ccccc1)C(=O)c1cccnc1O2 (centres undefined)	0.77	6.2	i	1.7	-1	-7	-19	-2.3	-7	-0.3
O=C(NCc1ccccn1)c1nc(-c2ccc(C(F)(F)F)cc2)no1	0.7	2.8	i	-0.5	-4	-11	-9	3.1	-2	-1.3
Cc1ccccc1S(=O)(=O)N1[C@@H](c2ccc(Br)cc2)C(C(=O)O)=CC[C@H]1c1ccc(Cl)cc1	0.67	1.9	.	.	.	-36	-67	-9.0	.	-0.3
CCN(CC)C(=O)CN(c1cccc(Br)c1)S(C)(=O)=O	0.64	-0.7	i	-0.1	-11	3	7	1.4	-4	-2.7
Cc1ccc(-n2nc3c(c2NC(=O)c2ccc4c(c2)OCO4)CS(=O)(=O)C3)c(C)c1	0.71	0.7	i	-0.2	-19	2	0	0.3	-2	-7.0
CC(NC(=S)Nc1ccccc1OC(F)F)C(C)(C)C (centres undefined)	0.64	0.6	i	0.7	7	-7	-13	5.6	-9	5.6
O=C(CSCc1cnn(-c2ccccc2)c1-n1cccc1)NCc1ccccn1	0.7	4.1	i	1.1	-5	-8	-5	0.2	-4	-1.1
CN(C)Cc1cc(CN(C)C)c(O)c(CCc2ccccc2)n1	0.67	0.4	.	0.2	-8	.	.	.	-6	.
CC(OC(=O)Cn1[nH]c(=O)c2ccccc2c1=O)C(=O)NC1(C#N)CCCCC1 (centres undefined)	0.7	1.3	i	0.5	-2	-1	-14	-2.4	4	0.9
CCSC1(SCC)N=C(N)C2(C#N)C(c3ccc(F)cc3)C12C#N (centres undefined)	0.72	0.0	.	0.7	-18	.	.	.	-8	.
CN(Cc1cn(C)nc1-c1ccc(Oc2ccccc2)cc1)Cc1cnc2ccccn12	0.66	1.9	i	-0.3	16	5	8	13	19	-7.4
CCC(=O)Nc1nc(-c2ccc3c(c2)OCCO3)cs1	0.71	4.2	i	-6.0	-13	6	8	-2.2	.	-8.1
Cc1cccc(-n2c(CCN3C(=O)c4ccccc4C3=O)nc3ccccc3c2=O)n1	0.69	-0.6	.	.	5	-5	-2	2.6	.	.

As entered above.
CN(Cc1cn(C)nc1-c1ccc(Oc2ccccc2)cc1)Cc1cnc2ccccn12 in Bfl-1 A1 inh = -0.3
COc1ccc(NC(=S)N2CCC(c3nc4ccc(Cl)cc4[nH]3)CC2)c(OC)c1 in AF4-AF9 inh = -34
Cc1cccc2cc(C3CC(c4ccco4)=NN3S(=O)(=O)c3ccccc3)c(Cl)nc12 (centres undefined) in T cruzi inh = 21

(more compounds)
SMILES	E coli growth	UCH37 inh	FGF22 binding	Bfl-1 A1 inh	T cruzi inh	rRNA inh HTS	rRNA inh HTS OD600	rRNA inh HTS RFP	Beta cell apopt	AF4-AF9 inh
O=C(CSc1nnc2ccc(-c3ccccn3)nn12)N1CCCC1	0.73	-2.0	i	.	.	9	0	-3.0	.	-31
COc1ccc(C)cc1Nc1nc(-c2c(C)[nH]c3ccccc23)cs1	0.72	-96	i	0.0	32	-4	-11	17	2	3.3
COc1ccc(CNC(=O)CSc2nc3ccc(C)cc3[nH]2)cc1	0.68	5.4	i	1.2	5	-3	-1	3.0	-3	-0.1
CC(C)(C)c1ccc(C(CC(=O)O)NS(=O)(=O)Cc2ccccc2)cc1 (centres undefined)	0.67	1.2	i	1.2	-7	0	2	-1.0	-5	0.7
CCC(=O)Nc1cccc(NC(=O)c2ccc3c(c2)OCO3)c1	0.64	-0.2	.	-2.5	10	.	.	.	0	.
Nc1c(N2CCCCC2)c(=O)[nH]c(=O)n1-c1ccccc1	0.68	4.7	.	0.1	-9	.	.	.	.	.
Cc1ccccc1-n1nnnc1SCC(=O)c1c(N)n(C2CC2)c(=O)[nH]c1=O	0.69	2.1	.	.	.	6	11	1.1	.	-0.1
CCN1CCN(C(=O)CN(C)S(=O)(=O)c2ccc(OC)cc2)CC1	0.71	2.0	.	0.4	-8	.	.	.	-4	.
CCc1ccc(NC(=O)Cn2nnc(-c3ccc(C)cc3-n3cnnn3)n2)cc1	0.68	3.1	i	0.3	-4	7	3	2.7	7	-8.7
CCn1nc(C(=O)NNS(=O)(=O)c2cc(/C=C/C(=O)O)cc(OC)c2OC)c2ccccc2c1=O	0.72	5.5	i	0.4	.	5	3	-0.5	1	-2.2
CCc1ccc(Oc2coc3cc(O)ccc3c2=O)cc1	0.66	-104	i	-1.1	-18	-5	-2	-0.3	-9	1.8
CCOc1ccc(Cl)cc1CNc1nnnn1C	0.68	0.5	i	-0.6	10	6	9	-1.3	1	-2.1
Cc1ccc(S(=O)(=O)N2CCOCC2)cc1C(=O)Nc1ccc(S(=O)(=O)Nc2nccs2)cc1	.	.	i	0.6	2	5	4	-3.7	-7	6.7
COc1cccc2c1OCC(CN1CCN(C3CCCCC3)C(CCO)C1)=C2 (centres undefined)	0.72	6.3	i	-0.7	-5	9	4	-0.4	-3	0.4
Cc1ccc(C(=O)NCCN(C)C)cc1C	0.7	1.4	.	-0.5	-5	.	.	.	.	.
CN1CCCc2cc(C=O)ccc21	0.72	9.9	.	1.1	0	.	.	.	-8	.
Cn1cccc1C(=O)OCC(=O)c1c[nH]c2ccccc12	0.67	-0.2	i	-5.2	.	-20	-22	-0.3	-12	9.5
O=C(NCCN=C1NS(=O)(=O)c2ccccc21)c1ccc(S(=O)(=O)N2CCOCC2)cc1	0.77	5.9	.	0.8	-10	.	.	.	1	.
Cc1nn(Cc2ccccc2)c(Cl)c1C(=O)NC(C)(C)C	0.67	-1.1	.	-1.8	-1	.	.	.	2	.
O=c1oc(-c2ccc(Br)o2)nc2ccccc12	0.7	2.0	.	-0.3	-7	10	-6	3.3	4	.
Cc1cc2c(NCC(C)O)ncnc2s1 (centres undefined)	0.69	0.1	.	-0.2	-15	.	.	.	-3	.
COc1ccc(C(=O)NC(=S)NC2CCCCC2)cc1	0.64	1.5	i	0.7	5	-50	-73	-13	0	11
Cc1ccc2nc(SCC(=O)Nc3cc(C)on3)[nH]c2c1	0.6	3.5	i	-0.9	-1	-27	-13	-13	-1	1.3
Cc1cc(C)nc(N2CCCC(C(=O)Nc3nnc(C(C)(C)C)s3)C2)n1 (centres undefined)	0.65	-4.0	i	-0.1	0	-1	-3	-0.2	-2	-5.7
COC(=O)c1cn[nH]c1NC(=S)Nc1ccccc1C	0.68	1.9	i	.	-11	-16	-13	12	.	3.5

The list continues:
SMILES	E coli growth	UCH37 inh	FGF22 binding	Bfl-1 A1 inh	T cruzi inh	rRNA inh HTS	rRNA inh HTS OD600	rRNA inh HTS RFP	Beta cell apopt	AF4-AF9 inh
Cc1ccc(C)c(NC(=O)c2ccc(S(=O)(=O)N(C)CC3CCCO3)cc2)c1 (centres undefined)	0.7	1.0	i	-0.5	-9	11	8	-0.1	6	-2.9
N#C/C(=C\c1ccc(O)c(O)c1)C(=O)c1ccc(O)c(O)c1	.	16	i	-4.5	.	.	.	.	1	1.2
COc1cc2ncnc(NCc3ccccc3Cl)c2cc1OC	0.69	3.2	i	0.6	37	-14	-18	-1.5	14	-1.7
C=CCNc1ccc(N2C(=O)C3CCC(C)CC3C2=O)cc1[N+](=O)[O-] (centres undefined)	.	.	i	-0.1	-3	16	3	-0.5	6	-11
O=C(COc1ncnc2sccc12)N1CCN(C(=O)c2ccco2)CC1	0.72	-3.5	.	0.0	-9	14	7	-2.2	-7	-2.2
CC(C)c1ccc(NC(=O)COC(=O)/C=C/c2cccc(Br)c2)cc1	0.71	5.8	.	-0.1	-22	.	.	.	-5	.
CCOc1cc(CNCCO)cc(Br)c1OCc1ccc(Cl)cc1Cl	0.61	-1.0	.	0.1	36	.	.	.	31	.
CCc1ccccc1NNC(=O)c1cc(C)on1	0.66	6.5	i	-0.3	-4	10	-4	1.0	-16	-6.3
Cc1cc(Cl)cc(Br)c1OCCCNCC(C)O (centres undefined)	0.66	4.4	i	1.1	1	13	0	0.7	1	?

Of the compounds above, these have a furan ring, fused or not:
SMILES	E coli growth	UCH37 inh	FGF22 binding	Bfl-1 A1 inh	T cruzi inh	rRNA inh HTS	rRNA inh HTS OD600	rRNA inh HTS RFP	Beta cell apopt	AF4-AF9 inh
Cc1cccc2cc(C3CC(c4ccco4)=NN3S(=O)(=O)c3ccccc3)c(Cl)nc12 (centres undefined)	0.72	1.3	.	0.0	21	.	.	.	-3	.
O=c1oc(-c2ccc(Br)o2)nc2ccccc12	0.7	2.0	.	-0.3	-7	10	-6	3.3	4	.
O=C(COc1ncnc2sccc12)N1CCN(C(=O)c2ccco2)CC1	0.72	-3.5	.	0.0	-9	14	7	-2.2	-7	-2.2
